Measles inh: inhibitors of measles virus growth in infected cells; infected Vero cells, GFP fluorescence, 64 h; hits give low values; z-score (concentration not given with the values); 33,000 tested, 0.1% active; AID 745;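 active means z-score under -3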;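 further: score is relative to mean and SD of the compound wells of a plate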
The depositor's hits bear a star. This is a subset, so the mix of outcomes need not match the whole.

SMILES	Measles inh
Cc1ccc(C2C(=O)N(C3CCCCCC3)CC(=O)N2Cc2ccccc2Cl)cc1 (stereo not drawn)	-1
O=C1C(=O)N(c2cccnc2)C(c2ccc3c(c2)OCO3)/C1=C(\O)c1ccc(Cl)cc1 (stereo not drawn)	-1.1
CN(C(=O)c1cccc(C(=O)N(C)C2CCCCC2)c1)C1CCCCC1	2.6
CCOC(=O)c1sc(NC(=O)COc2ccc(Cl)cc2)nc1-c1ccccc1	-0.42
Cc1cc(=O)n(C)c(=O)n1CCCCOc1ccc([N+](=O)[O-])cc1	-0.15
Cc1nc(N)sc1-c1csc(Nc2ccccc2)n1	-0.2
COc1ccc(CC(=O)Nc2nc3c(s2)C(=O)CC(C)(C)C3)cc1OC	-0.4
COc1ccccc1NC(=O)c1cc2c(=O)n3cccc(C)c3nc2s1	-0.68
COCCNc1c2c(c(C#N)c3nc4ccccc4n13)CCC2	-0.48
Cc1ccc(NC(=O)C2(N3CCN(c4ccccc4)CC3)CCCCC2)cc1	-0.12
CC1=C(C(N)=O)C(c2cccs2)n2nc(SCc3ccccc3F)nc2N1 (stereo not drawn)	1.1
COc1ccccc1NC(=O)c1sc(=S)n(-c2ccccc2C)c1N	0.39
CC(C)(C)C1CCc2c(sc(NC(=O)c3cnn4c(C(F)(F)F)cc(-c5ccco5)nc34)c2C#N)C1 (stereo not drawn)	-0.04
CCOc1ccc(-n2c(=O)c3c(C)c(C)sc3n(CC(=O)N(CC)CC)c2=O)cc1	-0.61
CC(=O)c1ccc(NC(=O)CCN2C(=O)C3C4CCC(C4)C3C2=O)cc1 (stereo not drawn)	0.07
CN1C(=O)c2ccccc2C(C(=O)NCCCN2CCN(Cc3ccccc3)CC2)C1c1cc2ccccc2n1C (stereo not drawn)	0.74
COC(=O)c1ccc(Sc2ncnc3nc[nH]c23)c([N+](=O)[O-])c1	-2.1
COc1cc(-c2cc(=O)c3ccccc3o2)ccc1O	3
CCCn1c(=N)n(CC(O)COc2ccc(OC)cc2)c2ccccc21 (stereo not drawn)	-0.19
COc1ccc(CCNC(=O)C2CC(=O)N(c3ccc(C(C)(C)C)cc3)C2)cc1OC (stereo not drawn)	0.06

16 structures from above, ordered by SMILES length, ascending.
SMILES	Measles inh
Cc1nc(N)sc1-c1csc(Nc2ccccc2)n1	-0.2
COc1cc(-c2cc(=O)c3ccccc3o2)ccc1O	3
COCCNc1c2c(c(C#N)c3nc4ccccc4n13)CCC2	-0.48
COc1ccccc1NC(=O)c1sc(=S)n(-c2ccccc2C)c1N	0.39
CCCn1c(=N)n(CC(O)COc2ccc(OC)cc2)c2ccccc21 (stereo not drawn)	-0.19
COc1ccccc1NC(=O)c1cc2c(=O)n3cccc(C)c3nc2s1	-0.68
CN(C(=O)c1cccc(C(=O)N(C)C2CCCCC2)c1)C1CCCCC1	2.6
Cc1ccc(NC(=O)C2(N3CCN(c4ccccc4)CC3)CCCCC2)cc1	-0.12
CCOC(=O)c1sc(NC(=O)COc2ccc(Cl)cc2)nc1-c1ccccc1	-0.42
Cc1cc(=O)n(C)c(=O)n1CCCCOc1ccc([N+](=O)[O-])cc1	-0.15
CC(=O)c1ccc(NC(=O)CCN2C(=O)C3C4CCC(C4)C3C2=O)cc1 (stereo not drawn)	0.07
Cc1ccc(C2C(=O)N(C3CCCCCC3)CC(=O)N2Cc2ccccc2Cl)cc1 (stereo not drawn)	-1
COc1ccc(CCNC(=O)C2CC(=O)N(c3ccc(C(C)(C)C)cc3)C2)cc1OC (stereo not drawn)	0.06
CCOc1ccc(-n2c(=O)c3c(C)c(C)sc3n(CC(=O)N(CC)CC)c2=O)cc1	-0.61
O=C1C(=O)N(c2cccnc2)C(c2ccc3c(c2)OCO3)/C1=C(\O)c1ccc(Cl)cc1 (stereo not drawn)	-1.1
CN1C(=O)c2ccccc2C(C(=O)NCCCN2CCN(Cc3ccccc3)CC2)C1c1cc2ccccc2n1C (stereo not drawn)	0.74

The listing picks up with the 2 entries that preceded the break.
SMILES	Measles inh
CCCn1c(=N)n(CC(O)COc2ccc(OC)cc2)c2ccccc21 (stereo not drawn)	-0.19
COc1ccc(CCNC(=O)C2CC(=O)N(c3ccc(C(C)(C)C)cc3)C2)cc1OC (stereo not drawn)	0.06
COc1ccc(CNC(=O)c2nn3c(c2Br)NC(c2ccc(Br)o2)CC3C(F)(F)F)cc1 (stereo not drawn)	-0.38
CC(C)NC(=O)C1CCN(C(=O)N(C)C)CC1	1.1
Cc1cc(C)c(C#N)c(SCc2nc3ccccc3[nH]2)n1	0.21
COc1ccc(-c2nc(NC(=O)CCC(=O)O)sc2C)cc1	-0.01
COc1cc2ccccc2cc1C(=O)Nc1ccc2oc(-c3ccc(Br)cc3)nc2c1	-0.32
COCCn1c(=N)c(C(=O)NC(C)c2ccccc2)cc2c(=O)n3cccc(C)c3nc21 (stereo not drawn)	-0.69
Cc1ccc(S(=O)(=O)NC2CCOC(C)(C)C2)cc1 (stereo not drawn)	2.3
Cc1ccc(S(=O)(=O)Nc2ccccc2CNc2c(C)n(C)n(-c3ccccc3)c2=O)cc1	-0.95
CCCCNC(=O)C1c2ccccc2C(=O)N(c2ccc(OC)cc2)C1c1ccc(OC)cc1 (stereo not drawn)	-0.64
COc1ccc(-n2cc(-c3ccccc3)c3c(NCCO)ncnc32)cc1	0.86
O=C(NCc1ccc2c(c1)OCO2)C(Cc1ccccc1)NS(=O)(=O)c1ccc(Br)s1 (stereo not drawn)	-0.14
COc1cc(NC(=O)c2ccc(F)cc2)cc(-n2cnnn2)c1	1.1
CCOc1ccc(S(=O)(=O)N2CCN(C34CC5CC(CC(C5)C3)C4)CC2)c2ccccc12	-0.2
Cc1ccc(OCC(O)CN2C(=O)c3ccccc3C2=O)cc1 (stereo not drawn)	-0.5
CCOc1ccc(C2C3=C(CCCC3=O)Nc3nc(SCc4ccccc4F)[nH]c(=O)c32)cc1 (stereo not drawn)	-0.37
Cc1cc(OCC(=O)Nc2ccccc2C(C)C)ccc1Cl	-0.6
CC(CCc1ccccc1)NC(=O)C1CCN(S(=O)(=O)N2CCOCC2)CC1 (stereo not drawn)	-0.23
CCSc1nnc2c(n1)OC(c1ccc(OC)cc1OC)N(C(C)=O)c1ccccc1-2 (stereo not drawn)	0.25
C=CCOC(=O)C1=C(C)N=C2SCCC(=O)N2C1c1cccc(Cl)c1 (stereo not drawn)	-0.06
CCOC(=O)c1c(C)n(C)c2c1cc(OC(=O)c1ccccc1F)c1ccccc12	1.4
CCOc1ccc(C(=O)Nc2cccc(-c3nc4ccccc4o3)c2)cc1[N+](=O)[O-]	-0.22
O=S1(=O)N=C(Nc2nc(-c3ccccc3)cs2)c2ccccc21	-0.16
Oc1ccc(Br)cc1C=Nc1cc(Br)c2c(c1)OCCO2	0.52
Cc1[nH]c2ccccc2c1C1c2cc([N+](=O)[O-])ccc2OC2(N3CCOCC3)CCCCC12 (stereo not drawn)	-0.96
COc1cc2c(cc1OC)C1C(C(=O)N3CCOCC3)c3ccccc3C(=O)N1CC2 (stereo not drawn)	1.2
COc1ccc(NC(=O)C2(S(=O)(=O)c3ccc(Cl)cc3)CC2)cc1Cl	-1.1
CCN(CC)c1cc(C)c2cc(NC(=O)c3cc(OC)c(OC)c(OC)c3)ccc2n1	1.5
CC1(C)NC(=O)N(CC(O)COc2ccc(C(C)(C)C)cc2)C1=O (stereo not drawn)	-0.04
O=C(O)CCC(=O)Nc1ccc(N2CCCCCC2)cc1	-0.23
O=C(c1ccc2c(c1)OCCO2)N1CCN(c2ccc([N+](=O)[O-])cc2Cl)CC1	1.4
CC(=O)Nc1nc(=O)c2ccccc2s1	-0.72
COc1cc(-c2nnc(SCC(=O)c3ccc4ccccc4c3)o2)cc(OC)c1OC	-0.21
CC1=C(C(=O)Nc2ccccn2)C(c2cccc(Cl)c2)C2=C(CCCC2=O)N1 (stereo not drawn)	-0.18
Nc1nc2ccc(C(=O)NCCO)cc2s1	-0.53
COc1cc([N+](=O)[O-])ccc1CC#N	0.43
COCC1=C(C(=O)OC)C(c2ccc(Cl)cc2)n2nnnc2N1 (stereo not drawn)	-0.3
O=C1CCCC2=C1C(c1ccc(Cl)cc1)n1nc(SCc3ccccc3F)nc1N2 (stereo not drawn)	-0.95
COc1ccc(Oc2coc3cc(OC(=O)c4cc(OC)c(OC)c(OC)c4)ccc3c2=O)cc1	-0.15
Cc1nc2sc(C(c3ccco3)N3CCN(C(=O)c4ccco4)CC3)c(O)n2n1 (stereo not drawn)	0.85
Cc1ccc(CN(CC(=O)Nc2cccc(F)c2)S(=O)(=O)c2ccc(C)cc2)cc1	-0.16
O=C(C1CC1)N1CCc2cc(S(=O)(=O)N3CCN(c4ccccc4)CC3)ccc21	0.56
CCN(C(=O)CS(=O)(=O)c1cccc2nsnc12)c1cccc(C)c1	0.17
COc1ccc(N2C(=O)CCC(C(=O)Nc3cnc4ccccc4c3)C2c2ccc(F)cc2)cc1 (stereo not drawn)	1.2
Cc1ccc(NS(=O)(=O)c2cccc3c(S(=O)(=O)Nc4ccc(C)cc4)cccc23)cc1	-0.28
COCCCNC(=O)C1CCN(S(=O)(=O)N2CCCC2)CC1	0.64
CCn1cc(C(=O)N2CCCCC2)c(=O)c2cc(S(=O)(=O)N3CCC(C)CC3)ccc21	1.1
CC(NC(=O)c1ccccc1NC(=O)c1ccccc1F)c1ccccc1 (stereo not drawn)	-0.59
COC(=O)C1=C(C)NC2=C(C(=O)CC(c3ccccc3)C2)C1c1ccc(C)cc1 (stereo not drawn)	-0.15
CC1=Nc2cccc3cccc(c23)N1	-0.78
CCOC(=O)CSc1nc2c(cnn2-c2ccccc2)c(=O)[nH]1	-1.8
O=C(c1ccccc1)N1CCN(c2nc(-c3ccc([N+](=O)[O-])cc3)cs2)CC1	-0.64
CC1=CC(C)(C)Nc2ccc(OC(=O)c3ccc(F)cc3)cc21	5.1
CCOc1ccc(NC(=O)CSc2nccn2-c2cccc(C)c2C)cc1	0.74
CCC(C)NC(=O)c1ccc2c(c1)nc(C)n2-c1ccc(Br)cc1 (stereo not drawn)	0.07
O=C(CSc1nc2ccccc2c2nc(CCc3c[nH]c4ccccc34)nn12)c1ccc(F)cc1	-0.04
CC(C)(C)C1CCc2c(sc3nc(SCC(N)=O)nc(N)c23)C1 (stereo not drawn)	-0.8
COc1ccc(-c2noc(-c3ccc(Br)cc3)n2)cc1OC	-1.1
Cc1ccc(NC(=O)CCN2C(=O)c3ccncc3C2=O)cc1	-0.36
CC(C)(C)C(=O)Cn1c(=O)n(-c2cccc(C(F)(F)F)c2)c(=O)c2sccc21	1.2
Cc1c(C(=O)N2CC(C)CC(C)C2)sc2ncn(CC(=O)N3CCCCC3)c(=O)c12 (stereo not drawn)	-0.47

(more compounds)
SMILES	Measles inh
COc1ccccc1-c1coc2cc(OCc3ccc(C)cc3)ccc2c1=O	0.9
O=C(NCc1ccccc1Cl)c1ccco1	-1.3
C(#Cc1ccc(C#CCN2CCOCC2)cc1)CN1CCOCC1	0.61
Clc1ccccc1COc1ccc(Nc2ncnc3ccccc23)cc1	-0.15
O=C(CSc1nnc(CN2C(=O)c3cccc4cccc(c34)C2=O)n1-c1ccccc1)NCc1ccco1	0.4
Cc1ccccc1OCCN1CCNC1=S	-0.41
Cc1ccc(NC(=O)CCS(=O)(=O)c2cc(Br)cc3c2N(C(=O)C2CC2)CC3)cc1F	0.1
O=C(CSc1nc2ccccc2c(=O)n1-c1ccc(F)cc1)NCc1ccccc1	-0.74
Cc1ccc(S(=O)(=O)NC(CC(=O)N2CCc3ccccc32)c2ccco2)cc1 (stereo not drawn)	0.23
COc1ccc(C2CC(C(F)(F)F)n3ncc(C(=O)Nc4sc5c(c4C#N)CCC(C)C5)c3N2)cc1OC (stereo not drawn)	-1
O=c1[nH]c2ccc(S(=O)(=O)Nc3ccc4c(c3)OCCO4)cc2[nH]c1=O	0.56
O=C(NCCCc1ccccc1)N1c2ccccc2Sc2ccccc21	0.52
COc1cc(C=C2N=C(SC)SC2=O)cc(OC)c1OC	0.64
Cc1ccc2c(c1)C(c1ccc(F)cc1)N(C(=O)c1ccc(OC(C)C)cc1)CC(=O)N2 (stereo not drawn)	-0.11
CC(C)c1cc(=O)n2c([nH]c3ccccc32)c1C#N	0.11
CC1OC(Nc2ccc(C(=O)O)c([N+](=O)[O-])c2)C(O)C(O)C1O (stereo not drawn)	-0.84
CCOC(=O)c1c(C)n(-c2ccccc2)c2ccc(OC(=O)c3cccc(OC)c3OC)cc12	-0.27
O=C(C1CCCN(S(=O)(=O)c2ccc(Cl)cc2)C1)N1CCCC2CCCCC21 (stereo not drawn)	-0.14
Oc1ccc2ccccc2c1C=Nc1cccn2cc(-c3ccccc3)nc12	-0.18
O=C1CNC(=S)N1c1cccc(C(F)(F)F)c1	1.8
Cc1nc2c(C(=O)NCc3ccccc3Cl)cnn2c(C)c1Cc1cccc(Cl)c1	1.2
Cc1ccc2c(c1)c(CC(=O)Nc1cccc([N+](=O)[O-])c1C)c(C(=O)O)n2C	0.35
CCN(CCNC(=O)c1cc(-c2cccnc2)nc2ccccc12)c1ccccc1	1.6
CN1CCN(c2nc(NCc3ccco3)c3ccccc3n2)CC1	-0.56
COc1ccc(-c2cc(-c3ccc(Cl)cc3)n3ncnc3n2)cc1OC	-0.36
COC(=O)c1c(N2C(=O)C3ON(c4ccccc4C)C(c4cccs4)C3C2=O)sc2c1CCCC2 (stereo not drawn)	-1.2
Cc1cc(C(F)(F)F)nc(NC(C)c2ccccc2)n1 (stereo not drawn)	1.4
COc1ccc2nc3oc(C(=O)N4CCN(c5ccc([N+](=O)[O-])cc5)CC4)cc3cc2c1	0.06
CCOC(=O)c1ccc2c(c1)nc(C)n2CCO	-0.74
O=C(O)CCC(=O)N1N=C(c2ccccc2)CC1c1cccs1 (stereo not drawn)	1.3
CCOC(=O)c1c(NC(=O)c2ccc(C)cc2)sc(C)c1C	1.1
COC(=O)C1=C(C)NC2=C(C(=O)CCC2)C1c1ccc(C(=O)OC)cc1 (stereo not drawn)	0.02
O=C(c1cc2ccccc2o1)N1CCN=C1SCc1ccc(Cl)cc1	-0.46
c1cncc(-c2nc3ccccn3c2Nc2ccc3c(c2)OCCO3)c1	1.3
Brc1ccc2nc(Nc3ccccn3)nc(-c3ccccc3)c2c1	0.23
O=C(c1ccco1)N1CCN(c2ccccn2)CC1	-1.8
CCOc1ccc(S(=O)(=O)Nc2ccc(C)cc2C)c2ccccc12	0.46

Source: PubChem (Emory University Molecular Libraries Screening Center)
